Sfp PPTase inh: inhibitors of Bacillus subtilis Sfp phosphopantetheinyl transferase. Q9F4F7. Biochemical Sfp PPTase activity, qHTS. Potency, µM, inactives show max response, negative = inhibition, usual class: inhibitors. 310,000 tested, 3.5% active; active = well fitted inhibition curve with a large enough effect; inconclusive = small, poorly fitted or top-dose-only effect, or another doubt; inactive = no such curve, though single readings can be large or run the other way;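 note: the enzyme is Sfp with the accession as filed and its product quenches rhodamine fluorescence; potency is the fitted concentration of half-maximal effect; 0% = enzyme reaction without inhibitor and -100% = no enzyme wells; top concentration of the series not given in the record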
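Reaction rates are the 30-min fluorescence difference (ex 525, em 598 nm) in wells containing 15 nM Sfp, 5 uM rhodamine-CoA and 12.5 uM BHQ-2-YbbR at pH 7.6 with 10 mM MgCl2.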
gsp antagonist: antagonists of gsp mutant (McCune-Albright syndrome); gsp-mutant cells, cAMP HTRF, 30 min; control for the full effect not named in the record; Potency, µM (series often up to 76.9 µM), for inactives: top-dose activity change, negative = inhibition, actives largely listed as inhibitors; 340,000 tested, 0.4% active; AID 624288; active = falling curve of any shape with a large fitted effect; inconclusive = falling curve, mostly with a smaller effect; inactive = flat or rising curve; cell line not stated here;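 note: intracellular cAMP measured with PDE inhibitor Ro 20-1724 present during compound exposure; potency is the fitted concentration of half-maximal effect; % is set by controls: 0 for no effect and ±100 for the full control effect; nearly all actives have a fitted effect of over 65% in size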
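G418-selected cells were plated in DMEM/10% FBS for 16-24 h at 37C, then treated with compounds plus the PDE inhibitor […] (300 uM solution added) for 30 min at 37C. Intracellular cAMP was measured by HTRF after 30 min lysis at room temperature.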
TRPV1 potentiator: potentiators of human vanilloid receptor 1 (TRPV1); Q8NER1; TRPV1-expressing cells, Fluo-8 calcium influx, capsaicin EC20 potentiation; host cell line not named in the record; control for the full effect not named in the record; potentiation, % at 8.33 µM; 320,000 tested, 0.02% active; active means potentiation above 80%; inconclusive means 30% to 80%; inactive means below 30%; note: 0% is about no effect
Target sequence (Q8NER1 whole entry, looked up): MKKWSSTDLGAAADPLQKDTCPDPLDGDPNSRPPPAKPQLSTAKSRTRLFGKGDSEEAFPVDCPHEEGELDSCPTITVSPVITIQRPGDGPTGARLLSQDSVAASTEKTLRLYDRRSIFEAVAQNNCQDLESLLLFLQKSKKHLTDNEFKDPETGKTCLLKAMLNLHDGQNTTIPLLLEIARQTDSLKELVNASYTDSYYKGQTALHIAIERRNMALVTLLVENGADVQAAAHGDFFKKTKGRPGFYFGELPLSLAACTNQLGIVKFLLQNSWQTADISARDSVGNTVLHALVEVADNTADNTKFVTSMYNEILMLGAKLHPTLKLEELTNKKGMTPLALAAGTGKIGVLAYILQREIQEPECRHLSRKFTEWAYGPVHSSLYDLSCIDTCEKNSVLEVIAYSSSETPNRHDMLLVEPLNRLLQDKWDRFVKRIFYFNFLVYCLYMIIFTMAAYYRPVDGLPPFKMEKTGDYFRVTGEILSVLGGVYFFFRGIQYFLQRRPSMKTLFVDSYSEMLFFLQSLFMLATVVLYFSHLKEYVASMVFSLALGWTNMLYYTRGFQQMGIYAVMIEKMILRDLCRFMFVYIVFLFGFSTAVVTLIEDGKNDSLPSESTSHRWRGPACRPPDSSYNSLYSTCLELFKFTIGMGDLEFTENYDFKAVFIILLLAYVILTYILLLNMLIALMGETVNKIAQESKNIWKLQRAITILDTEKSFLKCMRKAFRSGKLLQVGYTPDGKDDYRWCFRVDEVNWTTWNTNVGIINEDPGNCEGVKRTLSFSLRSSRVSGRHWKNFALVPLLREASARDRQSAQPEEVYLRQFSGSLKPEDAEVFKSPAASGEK
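Cells expressing TRPV1 were dye-loaded with Fluo-8 and read kinetically: 10 s baseline, 3 min after compound (agonist portion), then 2 min after EC20 capsaicin (allosteric enhancer portion). Calcium-bound dye fluorescence at 480/520 nm.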
Menin-MLL FL inh: displaces fluorescein MLL peptide from human menin; AID 1766; FP activity change, % at 61.4 µM; 290,000 tested, under 10 active; Fluorescence polarization, fluorescein-MLL peptide displacement from menin; inconclusive = falling polarisation curve, or a change in total fluorescence; inactive = total fluorescence flat and polarisation flat or rising; no compound was filed as active; the % refers to the polarisation; negative = inhibition;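 note: % of control where 0% means no effect; inhibitors lower the polarisation; unlabelled MLL peptide was the positive control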
ClpP mod: qHTS Assay for Activators of ClpP; purified B. subtilis ClpP, FRET peptide cleavage, 20 min; Potency, µM (top dose mostly 57.5 µM), inactives show at the top dose activity change, negative = active; ATP-dependent Clp protease proteolytic subunit (Bacillus subtilis (strain 168)), P80244; 340,000 tested, 1.9% active; active = well fitted falling curve with a large enough effect; inconclusive = small, poorly fitted or top-dose-only effect; inactive = no such curve, though single readings can be large or run the other way; note: potency is the fitted concentration of half-maximal effect; the source files actives as falling curves though it sought activators and does not explain the sign; nearly all actives have a fitted effect of over 65% in size; many hits overshoot -100%
Target sequence (P80244 whole entry, looked up): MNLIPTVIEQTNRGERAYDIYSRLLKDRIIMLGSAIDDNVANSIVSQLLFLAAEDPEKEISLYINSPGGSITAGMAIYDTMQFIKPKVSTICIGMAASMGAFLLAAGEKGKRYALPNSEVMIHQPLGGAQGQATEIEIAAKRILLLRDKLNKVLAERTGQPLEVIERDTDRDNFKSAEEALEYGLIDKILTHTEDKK
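ClpP 10 microg/mL final, pH 8 Tris/KCl buffer with BSA, glycerol, Tween-20; compound pinned in; FRET-FV substrate; RT 20 min; Ex320/Em430; ΔFRET vs ADEP 5.8 microM, DMSO, no enzyme.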
gsp agonist: activates gsp, the McCune-Albright syndrome mutation; gsp mutant cells, cAMP HTRF, 30 min; control for the full effect not named in the record; Potency, µM (highest dose often 76.9 µM), for the others: at the highest dose activation (cAMP increase), most hits filed as activators; 340,000 tested, 0.13% active; AID 624287; active = well fitted activation curve with a large enough effect; inconclusive = small, poorly fitted or top-dose-only effect, or another doubt; inactive = no such curve, though single readings can be large or run the other way; cell line not stated here;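 note: phosphodiesterase inhibitor Ro 20-1724 added with compounds to block cAMP breakdown; potency is the fitted concentration of half-maximal effect; nearly all actives have a fitted effect of over 60% in size; about a fifth of the inactives were tested at one dose only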
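Cells in DMEM/10% FBS with G418 were pretreated with compounds in DMSO plus […] (300 uM stock) for 30 min at 37C. cAMP was measured by HTRF (cAMP-d2 plus anti-cAMP antibody-K) after 30 min at room temperature.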
CtBP-E1A blk: inhibitors of CtBP/E1A interaction | 340,000 tested, 0.49% active | activity change, % (concentration not given with the values) | AlphaScreen GST-E1A/His-CtBP binding, 1536-well; active compounds read low; control for the full effect not named in the record; in the data active means activity change below about -65%; inconclusive means about -30% to -65%; inactive means above about -30%; note: % is set by controls: 0 for no effect and ±100 for the full control effect
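Protein mix (5X: 125 nM each GST-E1A, His-CtBP) was incubated with pinned compound 2 h at 37 deg C in dark, in 50 mM Tris pH 8.0 buffer with 300 mM NaCl. Glutathione donor and nickel acceptor beads followed; AlphaScreen signal read after 1 h.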
The depositor's hits bear a star; ? = inconclusive; . = no result given; [ ] = dose if it differs, or a comment. No enrichment for hits; 5.3% or so of the library scored in one or more.

SMILES	Sfp PPTase inh	gsp antagonist	TRPV1 potentiator	Menin-MLL FL inh	ClpP mod	gsp agonist	CtBP-E1A blk
Cc1ccc(S(=O)(=O)N(C)C)cc1NC(=O)CCCNC(=O)c1ccc(Cl)cc1	10%	-8%	10	4.1	.	12%[15.4 µM]	2
CCOCCCNC(=O)c1ccc(C2SCC(=O)N2Cc2ccccc2)cc1 (centres undefined)	15%	-11%	0	-1.3	.	-26%	5
O=C1C2C3C=CC(CC3)C2C(=O)N1/N=C/c1c(O)ccc2ccccc12 (centres undefined)	-11%	-4%	5	1.0	-0.5%	-69%[inhibitor]	.
CCc1nnc(NC(=O)CN2CCN(Cc3ccc(F)cc3)CC2)s1	9%	6%	27	2.6	0.1%	4%[15.4 µM]	0
Cc1cc(-c2nnc(CCC(=O)NC(c3ccccc3)c3ccccc3)o2)no1	10%	-9%	3	2.5	-0.4%	0%	2
COc1ccc2cc3c(N)nn(C(=O)c4cccc([N+](=O)[O-])c4)c3nc2c1	-10%	1%	-5	-0.8	0.6%	-3%[15.4 µM]	10
C1=C(c2ccccc2)CCN(c2ncnc3nc[nH]c23)C1	0%	3%	19	0.5	-6.0%	2%	-15
CCOc1ccc(OCCC(=O)OCC(=O)N(CC)c2c(N)n(Cc3ccccc3)c(=O)[nH]c2=O)cc1	.	5%	.	.	1.0%	-18%	1
CCN(C(=O)COC(=O)c1ccc(OCc2c(C)noc2C)cc1)c1ccccc1	0%	-20%	1	1.2	25µM*	-4%	3
FC(F)Oc1ccc(NC(=S)NCc2ccco2)cc1Cl	-3%	-10%	2	3.8	-0.2%	-28%	7
CCC(C)(C)NC(=O)C1CCC(CNS(=O)(=O)c2cccc3nsnc23)CC1 (centres undefined)	18%	-8%	10	.	1.0%	27%	4
O=C(CCCSc1nc2sc3c(c2c(=O)[nH]1)CCC3)NCCO	6%	0%[15.4 µM]	.	2.5	?	-1%	0
COc1ccc(C(CNC(=O)CSc2ccccc2F)N2CCOCC2)cc1 (centres undefined)	.	-5%	-5	.	.	-12%[15.4 µM]	-11
COc1ccc(C(=O)OCC(=O)NC2CC2)cc1OC	.	6%	4	.	-9.0%	-1%	-10
CCc1ccc(OCC(=O)N(CC)CC)cc1	9%	3%	0	-1.8	.	-28%	11
CC(=O)Oc1ccc2c(=O)c(Oc3ccccc3)c(C)oc2c1OC(C)=O	?	-1%	5	8.0	?	-30%[inhibitor]	-25
COc1ccccc1-n1c(CNC(=O)c2ccc(S(=O)(=O)N3CCOCC3)cc2)n[nH]c1=S	-22%	0%	-6	-7.7	-0.3%	-24%	6
CN1CCN(/C=N/C2=C(C#N)C(c3ccccc3)C3=C(CC(C)(C)CC3=O)O2)CC1 (centres undefined)	23%	4%	5	4.7	-2.6%	8%	-6
COc1ccc(NC(=O)Cn2c(C(C)C)nc(C)cc2=O)cc1Cl	5%	8%	7	8.5	-1.0%	6%	-20
NNC(=O)c1nn(-c2ccc(Cl)cc2)cc1O	23%	0%	5	1.6	3.8%	8%	-3
COc1cccc(NC(=O)CN(C)C(=O)c2cc3ccccc3cc2OC)c1	.	-8%	0	.	?	28%	-9
Cc1ccccc1NC(=O)C(C)OC(=O)CCC(=O)N(CC(C)C)c1c(N)n(CC(C)C)c(=O)[nH]c1=O (centres undefined)	.	9%	-2	.	.	-10%[15.4 µM]	-7
Cc1cc(NC(=O)CSc2nnc(-c3ccncc3)n2Cc2ccccc2)n(-c2ccccc2)n1	18%	-12%	16	-0.6	0.5%	-12%	.
COc1ccc(C)cc1NC(=O)C1CCCN(S(=O)(=O)c2cccs2)C1 (centres undefined)	5%	-11%	9	4.6	.	-9%	0
Cc1ccc2c(C)c(C(=O)Nc3nnc(C)s3)oc2c1	4%	0%	3	1.1	-2.9%	?	-1
CC1(C)CC(=O)C2=C(C1)N(CCN1CCOCC1)C1=C(C(=O)CC(C)(C)C1)C2c1cccc(F)c1	24%	2%	-12	3.0	28µM*	1%	11
O=C(CCC(=O)c1ccccc1)NCCOc1ccccc1	14%	10%	-3	0.3	.	?	-22
CCOC(=O)c1ccc(N/C=C/C(=O)c2ccco2)cc1	7%	-7%	-16	1.3	-1.1%	-6%	12
O=C(CSc1cccs1)Nc1cccc2ccccc12	4%	4%	4	1.2	-0.7%	-2%[15.4 µM]	14
O=C(Nc1cc(Cl)ccc1Cl)c1ccc(-c2ccccc2)cc1	-9%	2%	19	6.5	7.3%	17%	6
Clc1ccccc1-c1nnc(-c2cccnc2)o1	4%	-6%	0	6.3	-1.9%	-19%	.
COc1ccc(C(=O)Nc2cccc(C(=O)N/N=C/c3ccc(OC)cc3OC)c2)cc1	11%	-6%	11	.	?	10%	-12
CCCCc1ccc(N2C(=O)[C@@H]3C(CC(N)=O)NC4(C(=O)Nc5ccc(F)cc54)[C@@H]3C2=O)cc1 (some centres undefined)	-18%	-2%	-8	1.4	0.0%	-29%	3
COc1cc(C(=O)Nc2ccc3c(c2)ncn3C(C)(C)C)cc(OC)c1OC	7%	9%	-2	3.2	-2.3%	13%	-14
COc1cccc(CCN2C(=O)C(=O)N([C@@H](CNCc3ccccc3)Cc3ccccc3F)C[C@@H]2C(C)(C)C)c1	5%	?	7	5.0	1.0%	.	-16
Cc1c(CCOC(=O)CC23CC4CC(CC(C4)C2)C3)sc[n+]1CC(=O)c1ccccc1	79µM*	15%	-8	0.1	0.9%	-30%[inhibitor]	-1
O=c1[nH]c(NC2CCCCC2)nnc1Cc1ccccc1	11%	5%	17	-1.2	-3.9%	-34%[inhibitor]	-1
Cc1cc2c(c(=O)o1)C(c1cccs1)C(C#N)=C(N)O2 (centres undefined)	?	18%	3	?	0.8%	-15%	3
COc1cc2c(cc1OC)C(c1ccc(C)o1)CC(=O)N2 (centres undefined)	?	4%	-2	-4.0	-23%	-47%[inhibitor]	-4
COc1ccc(N2C(=O)CC(Nc3ccc(N4CCOCC4)cc3)C2=O)c(OC)c1 (centres undefined)	?	-20%	.	8.3	-1.1%	12%	-6
O=C(Cc1ccc2c(c1)OCCO2)Nc1ccc(Cl)c(S(=O)(=O)N2CCOCC2)c1	.	-28%	-6	.	-0.1%	-2%	.
CC(C)CNC(=O)COC(=O)c1ccc(Cl)c(S(N)(=O)=O)c1	-11%	10%	4	3.4	3.4%	-15%	7
O=[N+]([O-])c1cc2c(c3cccnc13)COCO2	.	4%	.	.	-1.7%	-12%	14
CCC(C)(C)NC(=O)C(c1ccccc1Cl)N(C(=O)CCC(=O)Nc1cc(C)on1)c1ccc(NC(C)=O)cc1 (centres undefined)	31%[activator]	2%	23	2.3	.	?	-3
Cc1oc2c(c1C(=O)Nc1ccc(C(=O)O)cc1)CCCC2	1%	-14%	19	2.0	-2.7%	?	-6
COC(=O)CSc1nc2cc(C)ccc2cc1C#N	-2%	-10%	-14	5.6	-6.9%	15%	7
CCN1C(=O)N[C@@H](c2cccs2)C(C(=O)OC)=C1C	15%	4%	.	-0.8[11.7 µM]	-0.9%	.	3
CCc1nnc(NC(=O)C2c3ccccc3Oc3ccccc32)s1	-20%	-1%	13	-2.6	0.6%	0%	21
N/C(=N\OC(=O)CCCN1C(=O)c2ccccc2C1=O)c1ccc(Br)cc1	.	0%	.	.	-7.7%	11%	-2
O=S(=O)(Nc1nc2ccccc2nc1N1CCc2ccccc2C1)c1ccc(Cl)cc1	11%	-3%	2	?	?	-17%[15.4 µM]	-7
COc1ccc2cc3cc(C(=O)NCCN4CCc5ccccc5C4)sc3nc2c1	-6%	8%	10	2.5	?	?	-2
COc1ccccc1N1CCN(S(=O)(=O)c2cn(C)c(=O)n(C)c2=O)CC1	0%	1%	-12	-0.7	-1.8%	-9%	0
Cn1cccc1/C=N/n1c(-c2ccccc2)n[nH]c1=S	2%	?	-11	0.1	-0.5%	-28%	-12

Nine entries from above, as comma-separated lines.
Structure,Sfp PPTase inh,gsp antagonist,TRPV1 potentiator,Menin-MLL FL inh,ClpP mod,gsp agonist,CtBP-E1A blk
CC1(C)CC(=O)C2=C(C1)N(CCN1CCOCC1)C1=C(C(=O)CC(C)(C)C1)C2c1cccc(F)c1,24%,2%,-12,3.0,28µM*,1%,11
O=C(CCC(=O)c1ccccc1)NCCOc1ccccc1,14%,10%,-3,0.3,.,?,-22
CCOC(=O)c1ccc(N/C=C/C(=O)c2ccco2)cc1,7%,-7%,-16,1.3,-1.1%,-6%,12
O=C(CSc1cccs1)Nc1cccc2ccccc12,4%,4%,4,1.2,-0.7%,-2%[15.4 µM],14
O=C(Nc1cc(Cl)ccc1Cl)c1ccc(-c2ccccc2)cc1,-9%,2%,19,6.5,7.3%,17%,6
Clc1ccccc1-c1nnc(-c2cccnc2)o1,4%,-6%,0,6.3,-1.9%,-19%,.
COc1ccc(C(=O)Nc2cccc(C(=O)N/N=C/c3ccc(OC)cc3OC)c2)cc1,11%,-6%,11,.,?,10%,-12
CCCCc1ccc(N2C(=O)[C@@H]3C(CC(N)=O)NC4(C(=O)Nc5ccc(F)cc54)[C@@H]3C2=O)cc1 (some centres undefined),-18%,-2%,-8,1.4,0.0%,-29%,3
COc1cc(C(=O)Nc2ccc3c(c2)ncn3C(C)(C)C)cc(OC)c1OC,7%,9%,-2,3.2,-2.3%,13%,-14

Screening results: PubChem BioAssay, National Center for Advancing Translational Sciences (NCATS)
